Screening data (PubChem BioAssay)
Vaccinia mCherry = inhibitors of vaccinia virus infection (mCherry reporter signal); Vaccinia virus mCherry reporter infection, fluorescence; about a quarter of the inactives have no number; Potency, µM (doses to about 36.5 µM), inactives show at the top dose activity change, negative = inhibition, usual class: inhibitors; actives 0.63% (n = 310,000); AID 720579; active = well fitted inhibition curve with a large enough effect; inconclusive = small, poorly fitted or top-dose-only effect; inactive = no such curve, though single readings can be large or run the other way; tested in A549 cells; also: nearly all actives have a fitted effect of over 35% in size; inactives centre near -10
VACV Venus inh = vaccinia inhibition (Venus reporter) | AID 720580 | Vaccinia virus Venus reporter expression, fluorescence | actives 0.46% (n = 330,000) | Potency, µM (top dose mostly 36.5 µM), without a hit: at the highest dose activity change, negative = inhibition, most hits filed as inhibitors; active means well fitted inhibition curve with a large enough effect; inconclusive means small, poorly fitted or top-dose-only effect; inactive means no such curve, though single readings can be large or run the other way; tested in A549 cells; also: nearly all actives have a fitted effect of over 30% in size; inactives centre near -10
An asterisk follows results filed as active; i = inactive; ? = inconclusive; nt = not tested or not shown; & = joins results of further samples; [ ] = dose if it differs, or a comment. % is scaled to controls: 0 for no effect and ±100 for the full control effect; potency is read from the fitted curve at half-maximal effect. Rows were taken by chance; any-hit rate near 0.87%.

SMILES | Vaccinia mCherry | VACV Venus inh
COc1ccc(C(O)c2nc(-c3cccc(C(F)(F)F)c3)cs2)cc1 (configuration not stated) | 6% | 1%
COc1ccc(-c2coc3cc(OC)cc(OC)c3c2=O)cc1 | -4%&-3% | 4%&1%
O=C1[C@H]2[C@@H](/C=C/c3ccccc3)N3C(=O)CN(CC4CC4)C(=O)[C@@]3(Cc3ccccc3)[C@H]2C(=O)N1c1ccccc1 | i | 3%
Nc1c(C(=O)Nc2cccc(Cl)c2)sc2nc3c(cc12)CN(Cc1ccccc1)CC3 | ? | -26%
CN(C)S(=O)(=O)c1ccc(Cl)c(NC(=O)c2ccncc2)c1 | -14% | -4%
O=[N+]([O-])c1cccc(-c2ccc(/C=N/Nc3nc(N4CCCCC4)nc(N4CCCCC4)n3)o2)c1 | -13% | 1%
O=C(Cc1ccc(Cl)cc1)NCC(=O)N1CCCCC1 | 3% | -7%
CC1(c2nnnn2-c2ccc3c(c2)OCCO3)CCC(=O)N1CC(F)(F)F (configuration not stated) | -12% | 3%
CC1(C)OC1COc1c2occc2cc2ccc(=O)oc12 (configuration not stated) | i | -3%
CC(C)Oc1ccc(C(=O)N(Cc2ccco2)C2CCS(=O)(=O)C2)cc1 (configuration not stated) | -11% | 2%
CC(C)C(CO)NC(=O)CC(=O)NC(CO)C(C)C (configuration not stated) | -19% | -11%
Cc1cc(C)c(NS(=O)(=O)c2ccc(NC(=O)CCC(=O)O)cc2)c(C)c1 | -11% | 6%
COc1ccc(Nc2nnc(-c3ccc(C)c(S(=O)(=O)NCc4nc5ccccc5[nH]4)c3)c3ccccc23)cc1 | ? | ?
O=S1(=O)CCOCCCN1Cc1cccc(F)c1 | -24% | -14%&-12%
CCOC(=O)C(C)Sc1ccc2nnc(CCNS(=O)(=O)c3ccccc3)n2n1 (configuration not stated) | -10% | -7%&-14%
Cc1cccc(S(=O)(=O)NNC(=O)c2sc(C)nc2C)c1 | -19% | -1%
CCN(CC)CCNS(=O)(=O)c1ccc2c3c(cccc13)C(=O)N2 | -15% | -7%
Cc1cccc(C(=O)NCC2CCN(C(=O)c3cccc(C)c3)CC2)c1 | -14% | -8%
COc1ccccc1N1CCN(C(=O)c2cc(=O)c3cc(C)cc(C)c3o2)CC1 | -2% | ?
Cc1ccc(/C=N/N2CCN(C3c4ccccc4-c4ccccc43)CC2)s1 | -11% | -9%
CC(=O)Nc1cc(C(=O)N2CCC3(CC2)OCCO3)ccc1S(=O)(=O)c1ccc(C)cc1 | -26% | -17%
COc1ccc(Cn2c(CCC(=O)Nc3cc(OC)c(OC)c(OC)c3)nc3cccnc32)cc1 | -11% | -15%
CCCCc1c(O)nc(SCC(=O)N2CCOCC2)n(-c2ccc(C)cc2)c1=O | -13% | -2%
CCCn1ncc(CN2CCC(n3nccc3NC(=O)c3ccccc3Cl)CC2)c1C | -19% | -13%
COc1ccc(NC(=O)Nc2cccc(C(F)(F)F)c2)cn1 | ? | ?
Cc1cc(NC(=O)CS(=O)(=O)c2ccc(F)cc2)no1 | -11% | -8%
CCN(CC)c1ccc2c(Cl)cc(=O)oc2c1 | -14% | 2%
Oc1c(C2=NCCNC(C(F)(F)F)=C2)ccc2ccccc12 | -22% | -21%
CC(C)CC(=O)c1c(O)c(C=O)c(O)c2c1O[C@@]1(C)[C@@H](C2)C[C@H]2C[C@@H]1C2(C)C | ? | ?
Cc1ccc(C)c(N(CC(=O)NC2CCCCC2)C(=O)c2snc(C(N)=O)c2N)c1 | -2% | 0%

The closing 2 records of the part above are carried over, then new ones follow.
SMILES | Vaccinia mCherry | VACV Venus inh
CC(C)CC(=O)c1c(O)c(C=O)c(O)c2c1O[C@@]1(C)[C@@H](C2)C[C@H]2C[C@@H]1C2(C)C | ? | ?
Cc1ccc(C)c(N(CC(=O)NC2CCCCC2)C(=O)c2snc(C(N)=O)c2N)c1 | -2% | 0%
O=c1[nH]cnc2c1ncn2C1OC(CO)CC1F (configuration not stated) | 9% | -2%
Cc1ccnc(NC(=O)c2ccc(S(=O)(=O)N3CCC(C)CC3)cc2)c1 | -7% | -11%
O=C(COC(=O)c1ccc(Br)o1)NC12CC3CC(CC(C3)C1)C2 | -12% | -11%
Nc1ccc(-c2cn3cccnc3n2)cc1 | i | -11%
CCOc1cc(/C=N/NC(=O)c2cccnc2)ccc1OCC(N)=O | i | -7%
COc1ccc(CCNC(=O)CNCC2CCCO2)cc1OC (configuration not stated) | i | 0%
O=C(N/N=C/c1cccs1)c1cc(-c2cccc3ccccc23)n[nH]1 | -20% | ?
Cc1cn([C@H]2C[C@H](O)[C@@H](CCC(=O)NC(c3ccccc3)c3ccccc3)O2)c(=O)[nH]c1=O | i | -2%
CC(C)C(=O)N1CCC1(C)C(=O)Nc1ccc(-n2cccc2)cc1 (configuration not stated) | -16% | -16%
Cc1ccc(NC(=O)Cn2c(=O)n(Cc3nc(C)no3)c(=O)c3cc4c(cc32)OCO4)c(Cl)c1 | -8% | -10%

Quoted from the entries so far, 15 compounds:
SMILES | Vaccinia mCherry | VACV Venus inh
Cc1cc(NC(=O)CS(=O)(=O)c2ccc(F)cc2)no1 | -11% | -8%
CCN(CC)c1ccc2c(Cl)cc(=O)oc2c1 | -14% | 2%
Oc1c(C2=NCCNC(C(F)(F)F)=C2)ccc2ccccc12 | -22% | -21%
CC(C)CC(=O)c1c(O)c(C=O)c(O)c2c1O[C@@]1(C)[C@@H](C2)C[C@H]2C[C@@H]1C2(C)C | ? | ?
Cc1ccc(C)c(N(CC(=O)NC2CCCCC2)C(=O)c2snc(C(N)=O)c2N)c1 | -2% | 0%
O=c1[nH]cnc2c1ncn2C1OC(CO)CC1F (configuration not stated) | 9% | -2%
Cc1ccnc(NC(=O)c2ccc(S(=O)(=O)N3CCC(C)CC3)cc2)c1 | -7% | -11%
O=C(COC(=O)c1ccc(Br)o1)NC12CC3CC(CC(C3)C1)C2 | -12% | -11%
Nc1ccc(-c2cn3cccnc3n2)cc1 | i | -11%
CCOc1cc(/C=N/NC(=O)c2cccnc2)ccc1OCC(N)=O | i | -7%
COc1ccc(CCNC(=O)CNCC2CCCO2)cc1OC (configuration not stated) | i | 0%
O=C(N/N=C/c1cccs1)c1cc(-c2cccc3ccccc23)n[nH]1 | -20% | ?
Cc1cn([C@H]2C[C@H](O)[C@@H](CCC(=O)NC(c3ccccc3)c3ccccc3)O2)c(=O)[nH]c1=O | i | -2%
CC(C)C(=O)N1CCC1(C)C(=O)Nc1ccc(-n2cccc2)cc1 (configuration not stated) | -16% | -16%
Cc1ccc(NC(=O)Cn2c(=O)n(Cc3nc(C)no3)c(=O)c3cc4c(cc32)OCO4)c(Cl)c1 | -8% | -10%

Additional structures.
SMILES | Vaccinia mCherry | VACV Venus inh
COCC(=O)OCC(=O)Nc1cc(C)c(C)cc1[N+](=O)[O-] | -1% | -2%
O=c1oc2ccccc2c(NCc2ccccc2F)c1[N+](=O)[O-] | i | -28%
COc1ccccc1CNC(=O)c1cc2sccc2n1Cc1ccc(F)cc1 | -19% | -11%
COc1cc(Cl)ccc1OC1(C)CCN(Cc2cccc(OC)c2OC)C1 (configuration not stated) | 13% | 7%
COc1ccccc1OCCn1cc(C=O)c2ccccc21 | ? | 0%
O=C(O)C1CCc2sc3[nH]c(=S)n(-c4ccccc4)c(=O)c3c21 (configuration not stated) | i[7.34 µM] | 2%[7.34 µM]
Cc1cccc(NC(=O)c2cc3c([nH]c2=O)CC(c2ccccc2)CC3=O)c1 (configuration not stated) | -2% | 2%
Cc1csc(=Nc2ccccc2)n1CCCN1CCCC1=O | -12% | -6%
N#C/C(=N\Nc1ccc(S(=O)(=O)N2CCOCC2)cc1)C(N)=S | i | -9%
CN(C(=O)COC(=O)c1cccc(S(=O)(=O)N2CCCCCC2)c1)C1CCS(=O)(=O)C1 (configuration not stated) | -13% | -9%
Cc1cc(NC(=O)CSC2=NS(=O)(=O)c3cc(F)ccc3N2)no1 | -19% | -8%
COc1ccc(-c2cc(C(F)(F)F)c3c(n2)sc2c(O)cc(=O)[nH]c23)c(OC)c1 | -25% | 37%[activator]
O=C(NNC(=S)Nc1ccccc1)NNC(=S)Nc1ccccc1 | ? | -7%
O=C1CC(N2CCN(c3ccccc3O)CC2)C(=O)N1Cc1ccccc1 (configuration not stated) | -29% | -12%
COc1cccc(-c2csc(-c3c(N)c(C(=O)c4ccccc4)n4ccccc34)n2)c1 | -19% | -2%
Cc1ccc2nc(SCC(=O)Nc3ccc(F)cc3F)[nH]c2c1 | -2% | -30%
Cc1ccccc1C(=O)N1CCC(C(=O)Nc2cc(C(F)(F)F)ccc2N2CCCC2)CC1 | -13% | -6%
N#CC1=C(SCc2ccccc2)NC2=C(C(=O)CCC2)C1c1ccc2c(c1)OCO2 (configuration not stated) | -24% | -19%
OC(c1ccc(Cl)c(F)c1)c1ncc(-c2ccc(F)cc2)[nH]1 (configuration not stated) | 13% | -4%
O=S(=O)(NCc1nnc2n1CCN(Cc1ccccc1Cl)CC2)c1ccccc1 | i | -10%
CC1Cc2ccccc2N1C(=O)Cn1cnc2ccccc21 (configuration not stated) | -1% | -14%
Cc1ccc(Cl)cc1NC(=O)Nc1c(C)n(C)n(-c2ccccc2)c1=O | -4%&-7% | -4%&0%
Cc1ccc(-n2c(COc3ccccc3)n[nH]c2=S)cc1 | 7% | 2%
CC(C)(C)c1nnc(SCC(=O)c2ccccc2)n(N)c1=O | -14% | -11%
CCOC(=O)c1c(NC(=O)c2nc(SCC)ncc2Cl)sc2c1CCCC2 | -9% | -9%
O=[N+]([O-])c1ccccc1S(=O)(=O)n1cnc2ccccc21 | -10% | -11%
Cc1cc2c(cc1NC(=O)c1ccccc1C)n(C)c(=O)c(=O)n2C | -7% | 4%
Cc1ccc(Cn2c(CNC(=O)Cc3cccc(C)c3)nc3cccnc32)cc1 | -8% | -3%
COc1ccc(CNC(=O)C2Cc3c(-c4ccccc4)ccnc3O2)cc1OC (configuration not stated) | 3% | -4%
CCCCNC(=O)N(O)C1N(/N=C/c2ccc(N(C)C)cc2)C(=S)SC1(C)C (configuration not stated) | -14% | -11%
CC(C)(C)n1nnnc1C(c1cccs1)N(Cc1ccc(Cl)cc1)CC1CCCO1 (configuration not stated) | 11µM* | ?
CCCCC1=NN2CCS(=O)(=O)N=C2S1 | -6% | -9%
Cc1sc2ccccc2[n+]1C | -15% | 1%
O=C1NC(=O)/C(=C\c2ccc(OCc3cccc([N+](=O)[O-])c3)cc2)N1 | 1% | -7%
CC(=N)C1=C(O)CC(c2ccccc2)CC1=O (configuration not stated) | 20% | -8%
CCCc1cc(=O)[nH]c(SCC(=O)N2CCCC2=O)n1 | 1% | 13%
COc1ccc(CNC(=O)CCS(=O)(=O)c2ccc3c(c2)CCN3C(C)=O)cc1 | -1% | -7%
Cc1ccc(/C=C2\C(=O)NC(=S)N(c3ccc(F)cc3)C2=O)s1 | i | 24%
CCCCN(Cc1cc2ccccc2[nH]c1=O)C(=O)c1ccccn1 | 0% | -11%
Cc1ccc(S(=O)(=O)N2CCOC2CNC(=O)C(=O)NCCCc2ccccc2)cc1 (configuration not stated) | -14% | ?
CC(=O)NC(CC(=O)Nc1nc(-c2ccc(N(C)S(C)(=O)=O)cc2)cs1)c1ccccc1 (configuration not stated) | ? | 1%
CC(C)(C)NC(=O)C1CC(=O)OC12CCCCC2 (configuration not stated) | nt | 3%
Cc1cc(C)cc(OCC(=O)OCC(=O)c2c(N)n(C)c(=O)n(C)c2=O)c1 | i | -3%
Cc1ccc(-n2cnc3cc(C(=O)NC4CCCCCC4)ccc32)cc1Cl | -12% | -22%
CCCc1nnc(NC(=O)CSc2ncn[nH]2)s1 | nt | ?
OCC(O)C1OC(Nc2ccc(Br)cc2)C(O)C1O (configuration not stated) | -15% | -5%
CCN(CC(=O)Nc1ccccc1OC)C(=O)COc1ccc2ccccc2c1 | -4% | -20%
Nc1cc(=O)[nH]c(SCC(=O)Nc2nnc(-c3ccccc3)s2)n1 | 13% | 7%
Cc1ccccc1NC(=O)COC(=O)c1cc(C)n(C2CC2)c1C | i | -17%
O=C(OCCCc1cc2ccccc2c(=O)o1)c1ccc2c(c1)OCO2 | i | -13%

(cont.)
SMILES | Vaccinia mCherry | VACV Venus inh
COCCNC(=O)/C(C#N)=C/c1ccc(OC(=O)c2cccs2)c(OC)c1 | -22% | -11%
Cc1ncoc1C(=O)Nc1ccccc1C(N)=O | -5% | -4%
O=[N+]([O-])c1ccc(NN=Cc2cccc([N+](=O)[O-])c2)cc1 | ? | -3%
CCc1nc2c(OCCn3cccc3)cccn2c1N(C=O)Cc1ccc(OC)cc1 | 4% | -3%
CCC(C)NC(=O)CSc1nc2cc3c(cc2c(=O)n1CCCCCC(=O)NCc1ccc(OC)cc1)OCO3 (configuration not stated) | -12% | -2%
COc1ccccc1OCCSc1nnc(CNC(=O)c2ccco2)n1C | -13% | -5%
Cc1cc(C)c(NC(=O)Cn2c(=O)c3cccn3c3ccccc32)c(C)c1 | 2% | 1%
COc1cccc(-c2nc(SCC(=O)NCC3CCCO3)c(-c3ccc(Cl)cc3)[nH]2)c1 (configuration not stated) | -20% | -18%
COc1ccc(Cl)cc1NC(=O)CCN1CCOCC1 | -10% | 9%
CC1(C)CC(=O)CC(=O)/C1=N\Nc1c(Cl)cc(Cl)cc1Cl | -19% | -12%
Cc1ccc(C)c(N(C(=O)Cn2nnc3ccccc32)C(C(=O)NC(C)(C)C)c2ccsc2)c1 (configuration not stated) | -9% | -3%
